Screening data: PubChem, National Center for Advancing Translational Sciences (NCATS)
SARS PLP yeast – blocks SARS-CoV papain-like protease in a yeast assay. S. cerevisiae expressing SARS-CoV PLpro, growth rescue; control for the full effect not named in the record. 0.19% of 330,000 active. AID 485353. Potency, µM (top dose mostly 32.9 µM), for the others: top-dose activity, positive = growth rescue; note: 0% is about no effect; nearly all actives have a fitted effect of over 55% in size; growth read by luminescence after 48 h
RE007 growth inh – less growth of the S. pombe RE007 Vpr strain; S. pombe RE007 Vpr strain, BacTiter-Glo ATP luminescence, 24 h; control for the full effect not named in the record; Potency, µM (titrated, usually from 92.2 µM), inactives show at the highest dose activity change, negative = less growth; 0.21% of 360,000 active; active = well fitted falling curve with a large enough effect; inconclusive = small, poorly fitted or top-dose-only effect; inactive = no such curve, though single readings can be large or run the other way;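 note: % is set by controls: 0 for no effect and ±100 for the full control effect; nearly all actives have a fitted effect of over 50% in size; the assay follows cell death caused by Vpr and the record does not say whether a fall means rescue or toxicity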
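Fission yeast RE007 carrying one integrated HIV-1 vpr copy, seeded at OD 0.01 in PMG+AL medium with 23 nL pinned compound. Grown 24 h at 30 degrees; viability read by BacTiter-Glo luminescence after 5 min.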
Cruzain inh Det – blocks cruzain activity in presence of Triton detergent; P25779; purified cruzain, Z-FR-AMC fluorescence, 0.01% Triton; Potency, µM, for the others: max response, negative = inhibition, usual class: inhibitors; 0.43% of 200,000 active; active = well fitted curve in the direction sought with a large enough effect; inconclusive = small, poorly fitted or top-dose-only effect, or another doubt; inactive = no such curve, though single readings can be large; an effect the other way counts as inactive or inconclusive;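 note: plate controls were neutral wells for no effect and buffer without enzyme for full effect; nearly all actives have a fitted effect of over 40% in size; top concentration of the series not given in the record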
Target sequence (P25779 123-467 limits assumed): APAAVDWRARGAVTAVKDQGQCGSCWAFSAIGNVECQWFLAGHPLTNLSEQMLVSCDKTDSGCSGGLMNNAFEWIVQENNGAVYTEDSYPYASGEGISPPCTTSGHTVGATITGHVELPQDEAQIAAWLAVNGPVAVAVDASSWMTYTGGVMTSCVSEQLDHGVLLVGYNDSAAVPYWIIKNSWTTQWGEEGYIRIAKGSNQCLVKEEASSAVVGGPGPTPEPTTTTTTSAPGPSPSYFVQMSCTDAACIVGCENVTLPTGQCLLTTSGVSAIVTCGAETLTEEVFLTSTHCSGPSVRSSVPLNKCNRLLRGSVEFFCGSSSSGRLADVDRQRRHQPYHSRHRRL
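Cysteine protease activity tested under reducing, mildly acidic conditions (100 mM sodium acetate pH 5.5, 5 mM DTT) plus 0.01% Triton X-100. Cruzain 1.5 nM; substrate Z-FR-AMC 2 uM; 15 min compound preincubation at room temperature.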
Cruzain noTriton – blocks cruzain activity in detergent-free assay. P25779. purified cruzain, Z-FR-AMC fluorescence, no detergent. Potency, µM, inactives show max response, negative = inhibition, usual class: inhibitors. 2.3% of 200,000 active; active = well fitted curve in the direction sought with a large enough effect; inconclusive = small, poorly fitted or top-dose-only effect, or another doubt; inactive = no such curve, though single readings can be large; an effect the other way counts as inactive or inconclusive;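 note: plate controls were enzyme without inhibitor for no effect and buffer without enzyme for full effect; nearly all actives have a fitted effect of over 40% in size; top concentration of the series not given in the record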
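Purified cruzain at 1.5 nM, pre-incubated 15 min with compound at room temperature in 100 mM sodium acetate pH 5.5, 5 mM DTT, 0.00005% Triton X-100. Reaction started with 2 uM Z-FR-AMC; AMC fluorescence increase over 60 s gives rate.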
Lassa entry inh – Lassa virus entry inhibition; Lassa virus pseudotype entry inhibition, cell reporter; control for the full effect not named in the record; Potency, µM (highest dose often 37.9 µM), for the others: at the top dose activity change, negative = inhibition, most hits filed as inhibitors; 1.2% of 300,000 active; AID 540256; active means well fitted inhibition curve with a large enough effect; inconclusive means small, poorly fitted or top-dose-only effect, or effect the other way; inactive means flat fitted curve, though single readings scatter; tested in HEK293 cells; note: % is set by controls: 0 for no effect and ±100 for the full control effect; nearly all actives have a fitted effect of over 50% in size; luciferase read-out
Marburg entry inh – blocks Marburg virus binding to or entry into cells. Marburg virus pseudotyped entry inhibition, cell reporter; control for the full effect not named in the record; about a third of the inactives were read at about 46 µM. Potency, µM (top dose mostly 37.8 µM), without a hit: top-dose activity change, negative = inhibition, actives largely listed as inhibitors. 1.8% of 300,000 active. AID 540276; active = well fitted inhibition curve with a large enough effect; inconclusive = small, poorly fitted or top-dose-only effect, or effect the other way; inactive = flat fitted curve, though single readings scatter; tested in HEK293 cells; about a fifth of its hits are not listed in these tables; note: % is set by controls: 0 for no effect and ±100 for the full control effect; luciferase read-out
NS1 inh – inhibitors of influenza NS1 protein function; S. cerevisiae slowed by influenza A NS1, growth recovery by OD600; Potency, µM (doses to about 46.1 µM), for inactives: top-dose activity, positive = more growth; 0.4% of 270,000 active; note: actives are rising curves; nearly all actives have a fitted effect of over 50% in size
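In this qHTS, NS1 from influenza A is expressed in budding yeast, where it slows growth. Cells are switched from glucose to 2% galactose medium (pH 6.0, -URA), treated with compound, and growth recovery is read at OD600.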
StopGo reporter – lowers the luciferase signal of an FMDV 2A StopGo reporter; human cells with a luciferase reporter of 2A StopGo recoding; control for the full effect not named in the record; Potency, µM (series often up to 57.9 µM), for the others: at the top dose signal change, negative = less light; 1.2% of 410,000 active; active = well fitted falling curve with a large enough effect; inconclusive = small, poorly fitted or top-dose-only effect; inactive = no such curve, though single readings can be large or run the other way; tested in HEK293T cells; note: % is set by controls: 0 for no effect and ±100 for the full control effect; nearly all actives have a fitted effect of over 45% in size; luciferase light after 4 h
An asterisk follows results filed as active; ? = inconclusive; . = no result given; & = joins results of further samples; [ ] = remark or other dose. Unless noted, calls come from the whole dose curve; as a rule, active means well fitted rising curve with a large enough effect; inconclusive means small, poorly fitted or top-dose-only effect; inactive means no such curve, though single readings can be large or run the other way. Potency is the fitted concentration of half-maximal effect.

structure	SARS PLP yeast	RE007 growth inh	Cruzain inh Det	Cruzain noTriton	Lassa entry inh	Marburg entry inh	NS1 inh	StopGo reporter
CCc1ccc2nc(N3CCN(C(=O)C(C)(C)C)CC3)sc2c1	-5%	-20%	.	.	.	.	-7%	?
CC(NC(=O)CCc1nnc(C2CCCCC2)o1)c1ccc(F)cc1 (centres undefined)	0%	-8%	.	.	.	.	-3%	-21%
CCC(=O)Nc1ccc(NC(=O)c2cc3ccccc3o2)cc1	-1%	-5%	3.3%	-24%	-1%	8%	-62%	-28%
CCCS(=O)(=O)N1CCC(C(=O)NCCCN2CCC(Cc3ccccc3)CC2)CC1	-4%	-1%	0.9%	-3%	15%	-10%	3%	.
COc1ccc(-c2nnc(SCC(=O)Nc3cccc(C(F)(F)F)c3)s2)cc1	.	.	-2.3%	-19%	-14%[46.1 µM]	.	.	5%
O=C(CSc1n[nH]c(-c2ccccc2Cl)n1)NCc1ccc(F)cc1	.	.	1.7%	2%	13%[46.1 µM]	.	.	-18%
O=C(CC(=O)Nc1ccccn1)Nc1ccccn1	3%	17%	1.9%	-6%	-8%	2%	-12%	0%
O=C(O)CCN1C(=O)c2ccc(NC(=O)CSCc3ccccc3)cc2C1=O	-3%	27%	-7.0%	0%	-11%	-8%	1%	-9%
CCOC(=O)CC1CCCCN1C(=O)CCCn1nnnc1CN1CCOCC1 (centres undefined)	0%	11%	.	.	-2%	4%	-10%	-9%
COc1ccccc1CC(=O)NCCc1ccc(S(N)(=O)=O)cc1	18%	14%	-4.7%	5%	-5%	28%	-2%	-14%
CCC(=O)Nc1nnc(S(=O)(=O)N2CCc3ccccc32)s1	1%	20%	-3.9%	3%	17%[46.1 µM]	.	-1%	7%&-2%
CC(=O)Nc1ccccc1C(F)(F)F	0%	18%	.	.	5%	0%[46.1 µM]	-5%	3%
CN(Cc1cnccn1)C(=O)CC1C(=O)NCCN1Cc1ccc(F)cc1Cl (centres undefined)	-1%	-7%	.	.	13%	?	-4%	-29%
CCOC(=O)c1c(S(=O)(=O)NCC(C)c2ccccc2)c(C)n(C)c1C (centres undefined)	-2%	-1%	.	.	.	.	3%	44%[activator]
Cc1cc[n+](-c2[nH]c(=O)sc2/C=N/N=C(\[O-])c2ccncc2)cc1C	-10%	-10%	.	.	.	.	11%	-7%
CCNC(=O)NC(=O)C(C)Sc1ccc2c(c1)OCCO2 (centres undefined)	1%	4%	0.7%	-2%	-18%	-1%	5%	0%
COc1ccc(OC)c(S(=O)(=O)Nc2cccc(F)c2)c1	6%	9%	-2.0%	0%	18%	-1%	11%	108%[activator]
Cc1ccn2c(NC3CCCCC3)c(C(C)C)nc2c1	1%	-20%	-1.4%	-10%	-15%	-21%	-8%	-28%
CCc1ccc2nc(N3CCC(C(=O)O)CC3)sc2c1	.	.	-2.2%	22%	.	?	.	-50%
COC(=O)c1ccc(C(=O)OCc2nc3cc4ccccc4cc3[nH]2)cc1	-19%	1%	-19%	5%	18%	0%	3%	-11%
COc1ccc(NC2CCCN(C(=O)Cn3ccc(C)n3)C2)cc1OC (centres undefined)	-2%	0%	.	.	9%	7%	-9%	-3%
COc1cc2oc3ccccc3c2cc1N(CC(=O)N1CCCCC1)S(=O)(=O)c1ccc(C)cc1	.	3%	5.9%	6%	?	14µM*	14%	49%[activator]
CCOc1ccc2[nH]c(=O)c(C(c3nnnn3CCOC)N3CCOCC3)cc2c1 (centres undefined)	3%	2%	-7.4%	-1%	6%	16%	1%	-14%
CCN1CCC2(CCN(Cc3cn[nH]c3-c3ccc(OC)c(F)c3)C2)C1 (centres undefined)	0%	2%	.	.	.	.	4%	-5%
CSCC[C@H](N)C(=O)NCC1CCC(C(=O)Nc2ccc3c(c2)OCO3)CC1 (some centres undefined)	-19%	4%	.	.	.	.	-5%	-9%
CC(=O)COC(=O)CNC(=O)c1ccc(Br)cc1	-1%	3%	-24%	-24%	11%	4%	7%	-19%
COc1ccccc1Oc1ncnc2sccc12	1%	16%	.	.	?	9%[46.1 µM]	.	-6%
O=C(CSc1nnc(-c2ccccc2O)o1)NC1CCCCC1	-2%	-5%	.	.	7%	0%	-18%	10%
COc1ccc(OCCCC(=O)Nc2cccc(C(C)=O)c2)cc1	-37%	2%	6.7%	3%	-4%	-24%	-8%	-16%
CSCCC1NC(=O)N(CC(=O)Nc2cccc(S(=O)(=O)N3CCCCCC3)c2)C1=O (centres undefined)	-5%	7%	.	.	-11%[46.1 µM]	?	.	-2%
Cc1noc(C)c1CN(C(=S)NC1CC2CCC1C2)c1ccccc1 (centres undefined)	-11%	-5%	.	.	-14%	?	.	4%
CCOC(=O)COc1ccc(S(=O)(=O)NCc2ccco2)cc1	1%	6%	2.4%	14%	6%	?	5%	38%[activator]
COc1cc(NC(=O)Cn2cnc3c2c(=O)n(C)c(=O)n3C)c(OC)cc1Cl	.	.	-0.4%	2%	1%[46.1 µM]	.	.	-4%
COc1ccccc1CNC(=O)COc1cc(=O)n(C)c2ccccc12	.	.	1.8%	-2%	3%[46.1 µM]	0%[46.1 µM]	.	-1%
CN1C(=O)C2CN(CCc3ccccc3)CNC2N(C)C1=O (centres undefined)	4%	2%	4.8%	-3%	10%	?	-6%	0%
CC(C)Oc1ccc(S(=O)(=O)N2CCOCC2)cc1NC(=O)Cc1cccs1	5%	-1%	.	.	-18%	-10%[46.1 µM]	.	3%
COc1ccc2[nH]cc(CCn3ccc(O)c(C/C=C/c4ccccc4)c3=O)c2c1	0%	-7%	.	.	?	?	?	?
Cc1c(C(c2cc(O)ccc2O)c2c(C)n(C)n(-c3ccccc3)c2=O)c(=O)n(-c2ccccc2)n1C	.	10%	.	.	-5%[46.1 µM]	2%[46.1 µM]	.	-6%
COc1ccccc1C(=O)COC(=O)/C(=C/c1ccccc1)NC(C)=O	2%	4%	.	.	-12%	9%	.	3%
O=S(=O)(Nc1cccc2ccccc12)c1cccs1	5%	-3%	.	.	24%[46.1 µM]	9%[46.1 µM]	1%	24%
Cc1nn(-c2cccc(C(F)(F)F)c2)c(=O)c2ccccc12	1%	3%	.	.	-4%	4%	-32%	0%
Nc1c2c(nc3sc4c(c13)CCCC4)CCCCCC2	-7%	-4%	-17%	25µM*	4%	6%	1%	-9%
COc1ccc(C)cc1N(CC(=O)Nc1cccnc1)S(=O)(=O)c1ccc(C)cc1	1%	0%	.	.	11%[46.1 µM]	?	-5%	25%
CCc1nc(Nc2ccccc2OC)c2oc3ccccc3c2n1	-4%	-3%	.	.	.	.	-7%	0%
Cc1ccc(C2NC(=S)NC3=C2C(=O)CC(C)(C)C3)cc1 (centres undefined)	2%	9%	-1.9%	-4%	4%	7%	11%	-19%
O=C(CCn1c(=O)oc2ccccc21)N1CCc2ccccc21	-1%	-5%	1.1%	11%	-1%	?	-6%	3%
Cc1ccc(CC(=O)Nc2ccncc2)cc1	0%	-7%	.	.	.	.	6%	?
C=CCn1c(SCc2cc([N+](=O)[O-])cc3c2OCOC3)nc2cc(C(=O)O)ccc2c1=O	0%	-3%	.	.	.	.	1%	-24%
O=C(c1ccc2c(c1)N(Cc1ccc(Cl)cc1)C(=O)c1ccccc1S2(=O)=O)N1CCc2ccccc21	.	.	-1.0%	?	-12%[46.1 µM]	?	.	-2%
O=c1c([N+](=O)[O-])c(N2CCOCC2)c2ccccc2n1Cc1ccccc1	-1%	12%	.	.	?	-2%[46.1 µM]	0%	?
O=C(O)CC1SC(=Nc2cccc(C(F)(F)F)c2)NC1=O (centres undefined)	1%	1%	3.2%	-1%	0%	-22%[46.1 µM]	-11%	8%
O=C(N/N=C/c1cccc2ccccc12)c1cc(C2CC2)[nH]n1	12%	9%	.	.	.	.	12%	-1%
CCCOc1ccc(-c2c(C(=O)N/N=C/c3ccccc3OCC)nnn2-c2nonc2N)cc1	-4%	2%	.	.	10%[46.1 µM]	11%[46.1 µM]	8%	1%
CCCCCC1CC(CC(=O)O)C(=O)O1 (centres undefined)	0%	-4%	-1.8%	-3%	-10%	3%	16%	-9%
Cc1nc(-c2ccc(O)c(O)c2)cs1	6%	-7%	1.6%	0%	-6%	-8%	-12%	13%
CN(C)CCOC(=O)CC12CC3CC(C1)CC(CC(=O)OCCN(C)C)(C3)C2	1%	-1%	.	.	.	.	4%	-12%
O=C(O)c1ccc(Nc2nc(-c3cccnc3)cs2)cc1O	7%	5%	.	.	.	.	40%	22%
COC(=O)c1cc(C(=O)OCC(=O)NC2CCS(=O)(=O)C2)cc([N+](=O)[O-])c1 (centres undefined)	-1%	21%	.	.	-12%	12%[46.1 µM]	.	0%
Cc1cc(C)cc(N2C(=O)CC(n3ccnc3)C2=O)c1 (centres undefined)	.	-5%	3.5%	7%	3%	-16%	-5%	-12%

Three of these compounds in another layout.
Cc1cc(C)cc(N2C(=O)CC(n3ccnc3)C2=O)c1 (centres undefined)
  SARS PLP yeast = . | RE007 growth inh = -5% | Cruzain inh Det = 3.5% | Cruzain noTriton = 7% | Lassa entry inh = 3% | Marburg entry inh = -16% | NS1 inh = -5% | StopGo reporter = -12%
COC(=O)c1ccc(C(=O)OCc2nc3cc4ccccc4cc3[nH]2)cc1
  SARS PLP yeast = -19% | RE007 growth inh = 1% | Cruzain inh Det = -19% | Cruzain noTriton = 5% | Lassa entry inh = 18% | Marburg entry inh = 0% | NS1 inh = 3% | StopGo reporter = -11%
O=C(N/N=C/c1cccc2ccccc12)c1cc(C2CC2)[nH]n1
  SARS PLP yeast = 12% | RE007 growth inh = 9% | Cruzain inh Det = . | Cruzain noTriton = . | Lassa entry inh = . | Marburg entry inh = . | NS1 inh = 12% | StopGo reporter = -1%

No enrichment for hits (roughly 4.7% active in at least one column).
